Screening data (PubChem)
INS promoter inh: inhibitors of insulin promoter-driven GFP, primary screen, imaging, TRM-6 cells (human fetal islet line), eGFP reporter, cell count; actives 0.9% (n = 130,000); reporter expression induced with tamoxifen; AID 1273, 2008; inhibition, % at 2 µM;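 active means inhibition above the mean plus 3 SD, with well images judged a real hit on visual review, cut at about 60% in these data, passing the limit was not always enough; inconclusive means inhibition over the cutoff but images rejected on review; inactive means inhibition not above the cutoff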
HSV replic up: enhancers of HSV replication in host cells, fold increase, host cell viability. maximum fold increase. actives 0.005% (n = 220,000). HSV replication augmentation in cells. AID 1956, 2009;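 active means peak rise of 1.5-fold or more in the series; inconclusive means self-fluorescent or not available for retest; tested in PC3 cells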;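 further: first round at 10 µM; read as green reporter fluorescence; hits show the peak of a series up to 25 µM; 1 = signal of infected wells without compound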
GALR2 ag: GALR2 receptor agonists, primary screen, cell-based; Galanin receptor type 2 (Homo sapiens), O43603; GALR2-expressing cells, agonist activation read-out; activation, %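 (tested at 5 µM)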; actives 0.48% (n = 140,000);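 active means above mean plus 3 SD of all compounds, about 5% in these data, not always enough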;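 further: 0% = vehicle buffer wells and 100% = reference agonist at full effect; tested in CHO reporter cells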
PKD1 inh: inhibitors of human PKD1 kinase, biochemical, fluorescence polarization; actives 0.056% (n = 200,000); inhibition, %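 (about 10 µM by stock and volumes)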; Serine/threonine-protein kinase D1 (Homo sapiens), Q15139; PKD1 kinase fluorescence polarization assay;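 active means inhibition of 50% or more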;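 further: controls were vehicle for no effect and a reference inhibitor for full effect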
Target sequence (Q15139 whole entry, looked up): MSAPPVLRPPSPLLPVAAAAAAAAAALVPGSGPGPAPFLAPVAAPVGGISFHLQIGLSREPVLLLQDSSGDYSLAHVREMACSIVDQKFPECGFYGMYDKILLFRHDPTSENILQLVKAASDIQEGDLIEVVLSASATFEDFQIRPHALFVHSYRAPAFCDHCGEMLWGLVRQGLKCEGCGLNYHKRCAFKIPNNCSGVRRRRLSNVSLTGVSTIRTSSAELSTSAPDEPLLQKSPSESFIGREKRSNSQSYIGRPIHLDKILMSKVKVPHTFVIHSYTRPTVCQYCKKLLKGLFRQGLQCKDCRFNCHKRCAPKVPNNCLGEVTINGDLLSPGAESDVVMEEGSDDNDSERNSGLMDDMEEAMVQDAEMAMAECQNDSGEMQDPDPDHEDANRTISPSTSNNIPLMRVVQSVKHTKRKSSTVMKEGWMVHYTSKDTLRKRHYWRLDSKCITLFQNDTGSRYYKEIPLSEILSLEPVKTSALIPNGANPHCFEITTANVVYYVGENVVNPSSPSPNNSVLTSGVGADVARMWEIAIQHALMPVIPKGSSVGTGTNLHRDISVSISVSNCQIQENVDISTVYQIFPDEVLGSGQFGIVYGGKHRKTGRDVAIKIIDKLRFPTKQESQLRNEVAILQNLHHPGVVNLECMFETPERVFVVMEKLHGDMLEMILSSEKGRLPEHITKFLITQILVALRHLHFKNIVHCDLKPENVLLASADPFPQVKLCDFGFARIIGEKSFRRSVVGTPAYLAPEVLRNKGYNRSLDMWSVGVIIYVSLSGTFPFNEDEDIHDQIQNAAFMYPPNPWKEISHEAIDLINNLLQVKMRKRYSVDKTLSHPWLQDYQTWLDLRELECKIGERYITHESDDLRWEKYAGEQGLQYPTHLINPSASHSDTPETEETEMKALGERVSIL
RGS16-Gao: modulators of RGS16 binding to Galphao, primary screen, biochemical, human proteins, multiplexed bead flow cytometry; binding response (% of control), % at 10 µM; Regulator of G-protein signaling 16 (Homo sapiens) + Guanine nucleotide-binding protein …; AID 1441, 2008; bead-based flow cytometry RGS16-Galphao binding, fluorescence; actives lie on both sides; actives 0.38% (n = 220,000);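 active means below 25% or above 175%, edge rows of some plates excepted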;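 further: Galphao activated by GDP with aluminum fluoride before binding; 100% = wells without compound and 0% = beads without RGS; some results beyond the cut were filed as inactive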
INS promoter inh cell count: also measured in INS promoter inh; calls as there; normalized cell count, %; measured here: cell count, toxicity; reference of the scale not given here;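 cells exposed to compound for 48 h; stained nuclei by imaging scaled within each plate; lower means fewer cells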
HSV replic up primary fold: second read-out of HSV replic up, no call of its own (marks repeat the call); fold increase; compound at 10 µM; measured here: primary screen fold increase 10 uM; tested in PC3 cells;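 GFP signal in the first replicate; 1 = infected wells without compound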
An asterisk follows results filed as active; i = inactive; u = inconclusive; x = no result given.

No.	structure	INS promoter inh	INS promoter inh cell count	HSV replic up	HSV replic up primary fold	GALR2 ag	PKD1 inh	RGS16-Gao
1	CCNC(=O)CCSc1nc(C)cc(C)n1	-50.0	142.3	i	0.89	x	1.3	92.1
2	O=c1c(S(=O)(=O)c2ccc(Cl)cc2)cn(Cc2ccccc2)c2ccc(F)cc12	-40.0	63.9	i	0.91	0.6	-6.4	107.5
3	Cc1noc(C)c1COC(=O)CCC(=O)c1ccc(F)cc1	5.6	122.0	i	0.873	-0.5	-3.0	99.9
4	C/C(=N\NC(=O)C(=O)Nc1cccc(Cl)c1)c1ccncc1	18.5	109.0	i	0.99	-0.9	-21.2	81.9
5	COc1ccc(C)cc1S(=O)(=O)Nc1cccc(SC)c1	55.3	104.5	i	0.99	1.1	5.4	102.7
6	Cc1ccc(NC(=O)c2cc(S(=O)(=O)NCCc3ccccc3)ccc2F)cc1Cl	x	x	i	0.67	-0.8	-18.2	100.6
7	Clc1cccc(OCCN2CCN(CCOc3cccc(Cl)c3)CC2)c1	0.0	79.8	i	1.04	-0.7	-2.6	19.8
8	CCC(C)SCC(=O)Nc1ccc(S(=O)(=O)N2CCOCC2)cc1OC (configuration not stated)	x	x	i	0.89	x	x	99.5
9	CCOC(=O)C1=C(C)NC2=C(C(=O)CCC2)C1c1cccs1 (configuration not stated)	41.9	105.6	i	0.99	0.2	2.1	100.7
10	COc1ccc(N(CC(=O)NC(C)C)S(=O)(=O)c2ccc(NC(C)=O)cc2)cc1	x	x	i	0.84	-1.6	-1.9	101.4
11	COc1ccc(NC(=O)/C(Cl)=C(/Cl)S(=O)Cc2ccccc2Cl)cn1 (configuration not stated)	i	13.4	x	x	x	3.5	63.1
12	Cc1nc2sccn2c(=O)c1Cl	x	x	i	0.92	-0.8	0.7	99.4
13	CC(C)CN(CCC(=O)O)CC(C)C	13.3	52.2	i	0.71	-0.4	-4.9	103.2
14	CCOC(=O)c1c(CNc2ccncc2)n(C)c2cc(Br)c(O)cc12	x	x	i	0.97	x	3.1	100.7
15	CCN1CCN(c2ccc(NC(=O)c3ccc(F)cc3)cc2Cl)CC1	23.1	49.6	i	0.86	x	7.1	99.4
16	CC(Sc1nc(-c2ccc(F)cc2)cs1)C(=O)Nc1ccc(Cl)cn1 (configuration not stated)	-3.7	88.4	i	1.02	-2.1	4.6	123.8
17	CCOc1ccc(Nc2ncnc3c2cnn3-c2ccccc2)cc1	x	x	x	x	-1.1	0.3	101.9
18	CC1CN(Cc2ccc(Cl)cc2Cl)CC(C)O1 (configuration not stated)	41.7	109.0	i	0.98	-1.0	-7.3	108.7
19	CC(C)Nc1nc(Cl)nc(NNC(=O)C(C)Oc2ccccc2)n1 (configuration not stated)	x	x	i	1.08	-0.7	4.2	97.8
20	CSc1ccc(-c2nnn(Cc3ccc(C)cc3)n2)cc1	48.3	72.0	i	0.82	-2.5	-0.3	104.8
21	O=C(NN1CCOCC1)c1cnn2c(C(F)F)cc(-c3ccccc3)nc12	-16.7	49.9	i	1.01	x	-7.5	103.1
22	CCC1(CC)Nc2ccccc2C(=O)N1c1ccc(NC(C)=O)cc1	x	x	i	1.01	0.1	-2.7	105.3
23	Cc1ccc(NC(=O)c2cc(C)on2)cc1	x	x	i	0.83	-0.5	-1.9	106.5
24	CCS(=O)(=O)NCC(c1cccnc1)N1CCN(c2ccc(F)cc2)CC1 (configuration not stated)	-7.1	100.3	i	0.85	-1.5	-9.0	103.7
25	S=c1[nH]ncn2c1cc1oc3ccccc3c12	x	x	i	0.81	x	4.0	95.5
26	Cc1cc(C(=O)N2CCOCC2)n(-c2ccccc2)n1	x	x	i	0.99	-0.1	-0.5	105.5
27	Cc1nn(CC(=O)Nc2nnc(C(C)C)s2)c(=O)c2ccccc12	x	x	i	0.96	x	-5.9	110.8
28	O=C(CSc1nnc(Cc2ccccc2)o1)N1CCCC1	x	x	i	1	x	-7.2	91.9
29	C/C(=N\NC(=O)C(C)Nc1cccc(Cl)c1)c1ccc([N+](=O)[O-])cc1 (configuration not stated)	46.7	137.8	i	1.02	-2.6	2.0	50.7
30	COc1cc(/C=N/n2cnnc2)ccc1OCc1ccc(C)cc1	41.9	48.8	i	0.91	-0.8	-4.9	94.0

The list goes on; it opens with the 3 that closed the last part.
No.	structure	INS promoter inh	INS promoter inh cell count	HSV replic up	HSV replic up primary fold	GALR2 ag	PKD1 inh	RGS16-Gao
28	O=C(CSc1nnc(Cc2ccccc2)o1)N1CCCC1	x	x	i	1	x	-7.2	91.9
29	C/C(=N\NC(=O)C(C)Nc1cccc(Cl)c1)c1ccc([N+](=O)[O-])cc1 (configuration not stated)	46.7	137.8	i	1.02	-2.6	2.0	50.7
30	COc1cc(/C=N/n2cnnc2)ccc1OCc1ccc(C)cc1	41.9	48.8	i	0.91	-0.8	-4.9	94.0
31	S=C(NCc1ccco1)Nc1ccc(Cl)cc1Cl	10.3	120.1	i	1.06	0.2	-6.0	98.6
32	Nc1ccn(Cc2ccccc2F)n1	57.1	88.2	i	0.63	x	-5.8	101.5
33	O=C(Nc1ccccn1)C(=O)Nc1ccccn1	x	x	i	0.89	x	x	102.2
34	NC(=O)CN(N=Nc1cccc([N+](=O)[O-])c1)c1cccc([N+](=O)[O-])c1	x	x	i	0.85	x	-8.1	101.8
35	O=C(Nn1c(Cc2ccccc2)nc2ccccc2c1=O)c1c(O)c2cccc3c2n(c1=O)CCC3	33.3	101.2	i	0.97	x	-4.7	95.7
36	Cc1cccc(-c2n[nH]c(=S)n2/N=C/c2ccc(C)o2)c1	11.1	136.6	i	0.98	-0.6	-5.2	103.8
37	CS(=O)(=O)N(CC(=O)N1CCOCC1)c1cccc([N+](=O)[O-])c1	15.0	94.7	i	0.99	x	11.6	80.0
38	COc1cccc(CNn2c(-c3cccc(C)c3)nc3ccccc3c2=O)c1	-16.7	62.6	i	0.76	-0.4	-1.4	99.6
39	CC1(C(=O)NC2CCCC2)CCC(=O)N1Cc1ccccc1Cl (configuration not stated)	-32.3	169.8	i	0.92	-2.3	7.0	102.7
40	CC(C)Cn1c(=O)[nH]c2ccccc21	15.6	123.8	i	1.01	-3.2	-1.4	110.3
41	CCCc1cc(C(N)=O)c(NC(=O)C2CCCO2)s1 (configuration not stated)	50.0	105.4	i	0.77	-2.6	-8.8	109.6
42	CS(=O)(=O)c1ccc(Cl)c(NC(=O)c2ccc3ccccc3c2)c1	x	x	i	0.96	-0.4	-4.8	98.5
43	O=C(O)CCCCCN1C(=O)C(O)=C(C(=O)/C=C/c2ccccc2)C1c1cccc([N+](=O)[O-])c1 (configuration not stated)	-11.6	116.0	i	1.03	x	-2.8	101.6
44	N#CC1=C(N)OC2=C(C(=O)CCC2)C12CCN(C(=O)OCc1ccccc1)CC2	x	x	i	0.85	x	x	104.4
45	CC(=O)N1CCN(C2=Nc3cccc4cccc2c34)CC1	-33.3	125.3	i	1.07	-1.7	-19.2	101.2
46	COc1ccc(-c2csc3nc(C)nc(N4CCN(C(C)=O)CC4)c23)cc1OC	7.1	111.5	x	x	x	-6.7	106.0
47	COc1ccc(C2Nc3ccccc3C(=O)N2O)cc1CN1CCOCC1 (configuration not stated)	11.1	89.7	i	0.96	-1.1	-7.7	100.7
48	O=C(O)CSC(=S)N1CCCC1	x	x	i	1.1	x	x	95.6
49	Cc1ccc(C(C)C)c(Oc2nnnn2-c2ccccc2)c1	-142.9	121.5	i	0.74	-1.1	0.1	112.7
50	Cc1sc2nc(COC(=O)c3ccc(N4CCCC4)c([N+](=O)[O-])c3)[nH]c(=O)c2c1C	x	x	u	x	-1.2	-12.9	100.7
51	COc1ccc(OC)c(S(=O)(=O)N2c3cc(F)ccc3CCC2C)c1 (configuration not stated)	-54.7	230.2	i	0.94	0.6	-2.4	92.2
52	O=Nc1c(O)[nH]c2ccc(F)cc12	x	x	i	1.01	x	13.7	98.2
53	COc1ccc(/C=N/N(C)c2cc(=O)n(C)c(=O)[nH]2)cc1OC	x	x	i	1.08	x	9.8	107.3
54	O=C(COc1cc(Cl)c(Cl)cc1Cl)NC(=O)NC1CCCC1	-14.3	113.3	i	0.97	-1.2	-1.8	100.1
55	Cc1cc(C)n(C(=O)CNC(=O)c2cccs2)n1	9.1	119.8	i	0.903	-0.6	-6.2	101.8
56	O=C(Nc1ccc(NC(=O)C2CC2)nc1)c1ccco1	x	x	i	0.93	-1.1	3.6	94.1
57	Cc1c(Cl)cccc1NC(=O)CC(C(=O)O)C1CCCO1 (configuration not stated)	x	x	i	0.91	-0.5	-2.9	322.6
58	CCOC(=O)c1c(NC(=O)CSc2nnc(-c3ccc(C)cc3)o2)sc(C(C)=O)c1C	-1.4	124.1	i	0.82	-1.1	0.8	101.5
59	CC(=O)C1=C(C)NC(SCc2cccc3ccccc23)=C(C#N)C1c1ccco1 (configuration not stated)	x	x	u	x	2.5	0.4	107.6
60	O=C(NCc1ccccn1)c1c(O)c2c([nH]c1=O)CCCC2	x	x	i	1.15	-2.3	-17.5	95.5

The listing continues:
No.	structure	INS promoter inh	INS promoter inh cell count	HSV replic up	HSV replic up primary fold	GALR2 ag	PKD1 inh	RGS16-Gao
61	Cc1cccc(NC(=O)c2ccc3ccccc3n2)c1C	28.6	84.0	i	1.04	-2.2	-7.5	92.4
62	CC(C)CCNC(=O)CCNS(=O)(=O)c1ccc(Cl)cc1	47.6	134.1	i	1.22	-0.7	2.4	101.5
63	O=C(NC1CCCCC1)c1ccc(S(=O)(=O)N2CCOCC2)cc1	-6.7	168.0	i	0.87	-1.9	-29.8	102.8
64	Cc1ccc(S(=O)(=O)NN)c(C)c1N1CCCC1=O	x	x	i	0.9	x	x	89.7
65	O=C(CSCc1ccccc1)N=Nc1c(O)[nH]c2ccccc12	0.0	134.3	i	0.97	-0.1	0.7	98.7
66	O=C(NCc1ccccc1)c1ccc2c(=O)n(CC3CCCO3)c(=S)[nH]c2c1 (configuration not stated)	0.0	161.0	i	0.82	0.3	0.0	99.1
67	CCOC(=O)C(NC(=O)CC)(Nc1ccc(S(=O)(=O)Nc2ncccn2)cc1)C(F)(F)F (configuration not stated)	x	x	i	1.13	-1.1	-12.9	94.0
68	Cn1nnnc1SCc1ccc(C(=O)Nc2ccc(Br)cc2)cc1	-3.3	59.0	i	1.01	-1.4	-1.4	108.3
69	CC(C)c1ccc(OCC(=O)NC(Cc2c[nH]c3ccccc23)C(=O)O)cc1 (configuration not stated)	x	x	i	0.81	x	-4.3	96.5
70	O=[N+]([O-])c1cccc(S(=O)(=O)Nc2ccc(Cc3ccncc3)cc2)c1	x	x	i	1.02	x	x	97.5
71	COc1ccc(C(=O)NC(=S)Nc2ccccc2N2CCCCC2)cc1[N+](=O)[O-]	10.8	138.9	i	0.7	0.4	-0.6	97.5
72	COC(=O)C(CCSC)NC(=O)/C=C/c1ccc(OC)cc1 (configuration not stated)	x	x	i	1.04	x	-0.9	104.7
73	CC(=O)c1ccc(NC(=O)c2noc3c2CCCCC3)cc1	-10.0	114.9	x	x	-1.0	3.0	99.5
74	COc1ccc(C(=O)NC2CC3CCCC(C2)N3CC(C)C)cc1OC (configuration not stated)	-25.0	64.5	i	1.08	-2.1	-3.9	99.6
75	Cc1nc2c(Cl)cccc2[nH]1	x	x	i	0.77	0.2	-10.8	101.9
